GALR2 ag – GALR2 (human) receptor agonism | O43603 | GALR2-expressing cells, agonist activation read-out | activation, %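 (tested at 5 µM)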 | hit rate 0.48% among 140,000;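 active = above mean plus 3 SD of all compounds, about 5% in these data, not always enough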;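 note: 0% = vehicle buffer wells and 100% = reference agonist at full effect; tested in CHO reporter cells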
Target sequence (O43603 whole entry, looked up): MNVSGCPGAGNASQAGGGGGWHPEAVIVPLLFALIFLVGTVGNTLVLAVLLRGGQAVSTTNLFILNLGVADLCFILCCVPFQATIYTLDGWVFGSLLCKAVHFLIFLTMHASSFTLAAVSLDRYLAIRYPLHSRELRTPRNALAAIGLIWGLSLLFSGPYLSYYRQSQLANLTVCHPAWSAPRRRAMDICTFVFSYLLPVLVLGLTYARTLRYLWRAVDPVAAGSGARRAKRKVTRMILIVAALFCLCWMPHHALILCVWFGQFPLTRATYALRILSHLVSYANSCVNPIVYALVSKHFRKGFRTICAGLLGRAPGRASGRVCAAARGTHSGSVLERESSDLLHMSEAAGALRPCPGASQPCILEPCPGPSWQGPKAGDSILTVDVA
HSV augment – HSV replication enhancement. maximum fold increase. HSV replication augmentation in cells, fold increase. AID 1956. hit rate 0.005% among 220,000;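 active = peak rise of 1.5-fold or more in the series; tested in PC3 cells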;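 note: first round at 10 µM; read as green reporter fluorescence; hits show the peak of a series up to 25 µM; 1 = signal of infected wells without compound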
Insulin prom inh – TRM-6 insulin promoter activity inhibition | inhibition, % at 2 µM | hit rate 0.9% among 130,000 | TRM-6 cells (human fetal islet line), insulin promoter-eGFP reporter, imaging; reporter expression induced with tamoxifen;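 active = inhibition above the mean plus 3 SD, with well images judged a real hit on visual review, cut at about 60% in these data, passing the limit was not always enough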
PKD1 kinase inh – blocks activity of human protein kinase D1. PKD1 kinase fluorescence polarization assay. inhibition, %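 (about 10 µM by stock and volumes)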. hit rate 0.056% among 200,000. AID 797;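 active = inhibition of 50% or more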;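 note: controls were vehicle for no effect and a reference inhibitor for full effect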
RGS16-Gao HTS – modulates binding between human RGS16 and Galphao; bead-based flow cytometry RGS16-Galphao binding, fluorescence; actives lie on both sides; binding response (% of control), % at 10 µM; O15492+P09471; hit rate 0.38% among 220,000;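 active = below 25% or above 175%, edge rows of some plates excepted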;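 note: Galphao activated by GDP with aluminum fluoride before binding; 100% = wells without compound and 0% = beads without RGS; some results beyond the cut were filed as inactive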
Target sequence (O15492 whole entry, looked up): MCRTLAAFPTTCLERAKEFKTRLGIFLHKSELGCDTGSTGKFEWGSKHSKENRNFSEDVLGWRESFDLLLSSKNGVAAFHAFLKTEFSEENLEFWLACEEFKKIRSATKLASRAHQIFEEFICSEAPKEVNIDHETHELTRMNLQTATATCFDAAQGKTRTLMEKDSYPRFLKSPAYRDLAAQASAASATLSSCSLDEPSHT
Target sequence (P09471 whole entry, looked up): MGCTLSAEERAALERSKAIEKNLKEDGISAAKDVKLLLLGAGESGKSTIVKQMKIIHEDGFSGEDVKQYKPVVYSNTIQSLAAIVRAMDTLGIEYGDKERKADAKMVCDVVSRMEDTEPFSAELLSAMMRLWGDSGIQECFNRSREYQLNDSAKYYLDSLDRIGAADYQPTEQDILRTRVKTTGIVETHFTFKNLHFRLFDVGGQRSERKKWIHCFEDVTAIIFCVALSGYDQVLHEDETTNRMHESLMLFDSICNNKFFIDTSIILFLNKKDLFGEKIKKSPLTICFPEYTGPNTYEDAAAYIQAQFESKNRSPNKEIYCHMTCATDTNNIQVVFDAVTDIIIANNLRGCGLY
Insulin prom inh cell count – recorded beside Insulin prom inh, whose call it bears; normalized cell count, %; measured here: cell count, toxicity; reference of the scale not given here;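 cells exposed to compound for 48 h; stained nuclei by imaging scaled within each plate; lower means fewer cells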
HSV augment primary fold – also measured in HSV augment; calls as there; fold increase; compound at 10 µM; measured here: primary screen fold increase 10 uM; tested in PC3 cells;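 GFP signal in the first replicate; 1 = infected wells without compound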
Starred values were filed as active, the others as inactive; i = inactive; / = no result given. Not a hit list. About 1.3% of those tested had a hit in this group.

Short keys – A = GALR2 ag; B = HSV augment; C = HSV augment primary fold; D = Insulin prom inh; E = Insulin prom inh cell count; F = PKD1 kinase inh; G = RGS16-Gao HTS
1. CCCC(=O)C1=C(N2CCCC2)CC(C)(C)C(C(=O)OC)C1=O (stereo not given)
  A = /; B = i; C = 0.94; D = /; E = /; F = /; G = 85
2. O=C(c1cnn2c(C(F)(F)F)cc(-c3ccc4c(c3)OCO4)nc12)N1CCCCC1
  A = -1.8; B = i; C = 0.8; D = -58; E = 96; F = -5; G = 111
3. O=C(NCc1ccco1)c1ccc(CS(=O)(=O)Cc2ccc(F)cc2)o1
  A = -2.1; B = i; C = 1.1; D = /; E = /; F = -2; G = 99
4. Cc1ccc2nc(NC(=O)CSCC(=O)OCC(=O)c3ccccc3)sc2c1
  A = -1.3; B = i; C = 0.98; D = 19; E = 60; F = -8; G = 104
5. O=[N+]([O-])c1ccc(NCCCO)c(S(=O)(=O)N2CCOCC2)c1
  A = /; B = i; C = 1; D = -109; E = 147; F = 2; G = 108
6. CCc1ccc(C2C(C(=O)O)c3ccccc3C(=O)N2C)cc1 (stereo not given)
  A = -0.2; B = i; C = 1; D = /; E = /; F = 5; G = 103
7. CCOC(=O)C1CCCN(C(c2ccccn2)c2c(C)[nH]c3ccccc23)C1 (stereo not given)
  A = /; B = i; C = 0.75; D = /; E = /; F = -2; G = 111
8. NNc1nc2c(-c3ccc(F)cc3)nnn2c2ccccc12
  A = /; B = i; C = 1.2; D = /; E = /; F = 2; G = 101
9. CC(=O)c1ccc(NC(=S)NNC(=O)c2ccncc2)cc1
  A = -0.7; B = i; C = 1; D = /; E = /; F = 1; G = 109
10. O=[N+]([O-])c1ccc(N2CCN(Cc3ccccc3)CC2)c(S(=O)(=O)N2CCOCC2)c1
  A = -2.1; B = i; C = 0.97; D = 0; E = 104; F = -12; G = 102
11. COCCCNS(=O)(=O)c1ccc(C)cc1
  A = /; B = i; C = 0.91; D = /; E = /; F = -3; G = 102
12. COc1ccc(CN2C(=O)CS/C2=N/N=C/c2ccccc2)cc1
  A = /; B = i; C = 0.94; D = /; E = /; F = /; G = 113
13. O=C(NCC1CCCO1)c1cc2n(n1)C(C(F)(F)F)CC(c1ccc(F)cc1)N2 (stereo not given)
  A = -0.2; B = i; C = 0.68; D = /; E = /; F = 3; G = 107
14. O=C1CC(N2CCN(c3ccccc3)CC2)C(=O)N1c1ccc2c(c1)OCO2 (stereo not given)
  A = /; B = i; C = 1.1; D = 5; E = 116; F = 1; G = 105
15. Oc1ccc(Cl)cc1/C=N/c1nc2ccccc2[nH]1
  A = -0.8; B = i; C = 0.88; D = 46; E = 58; F = -4; G = 159
16. Clc1ccc(CSc2nnnn2-c2ccc3c(c2)OCO3)c(Cl)c1
  A = -2.7; B = i; C = 0.94; D = -50; E = 108; F = -6; G = 105
17. O=C1NC2(CCCCC2)C(=O)N1CCS(=O)(=O)Oc1ccccc1
  A = 10; B = i; C = 1; D = 3; E = 80; F = -3; G = 100
18. CCC1C(=O)CC(c2ccc([N+](=O)[O-])cc2)NC1c1ccc([N+](=O)[O-])cc1 (stereo not given)
  A = /; B = i; C = 0.91; D = /; E = /; F = -9; G = 112
19. Cc1cccc(C(=O)Oc2ccc(/C=N/NC(=O)Cc3ccc([N+](=O)[O-])cc3)cc2)c1
  A = 0.7; B = i; C = 0.7; D = 20; E = 68; F = 0; G = 96
20. Cc1ccc(C(=O)N2CCN(c3ccc(NC(=S)NC(=O)Cc4ccccc4)cc3)CC2)cc1
  A = -3.3; B = i; C = 0.93; D = /; E = /; F = 9; G = 111
21. O=C(COC(=O)Cc1ccc(Br)cc1)Nc1c(F)c(F)c(F)c(F)c1F
  A = -0.4; B = i; C = 0.96; D = 27; E = 92; F = 3; G = 66
22. Cn1c(SCc2ccccc2)nnc1-c1c[nH]c2ccccc12
  A = -2.9; B = i; C = 0.98; D = /; E = /; F = 9; G = 110
23. O=C1CC(N2CCC(O)CC2)C(=O)N1c1ccc(Br)cc1 (stereo not given)
  A = 0.1; B = i; C = 0.81; D = 19; E = 67; F = -17; G = 103
24. COc1ccc(NC(=O)NC(C(F)(F)F)C(F)(F)F)cc1
  A = -1.1; B = i; C = 0.74; D = /; E = /; F = -1; G = 103
25. COc1ccc(S(=O)(=O)NNC(N)=S)cc1
  A = /; B = i; C = 1.1; D = /; E = /; F = -4; G = 99
26. CCCCn1ccnc1C(=O)c1cccc(S(=O)(=O)N2CC(C)CC(C)C2)c1 (stereo not given)
  A = -0.8; B = /; C = /; D = 26; E = 67; F = -2; G = 100
27. CCc1c(-c2ccccc2)nc(N)c(C#N)c1-c1cccs1
  A = -0.8; B = i; C = 1; D = 11; E = 97; F = 2; G = 104
28. Cc1nnsc1S(=O)(=O)Cc1ccccc1C(F)(F)F
  A = /; B = i; C = 0.87; D = 13; E = 129; F = 2; G = 107
29. Cc1csc(NC(=O)C2CCCN2C(=O)Oc2ccccc2)n1 (stereo not given)
  A = -0.7; B = i; C = 0.68; D = /; E = /; F = -10; G = 102
30. Cc1nn2cnc3sc4c(c3c2nc1=O)CCCC4
  A = -2.0; B = i; C = 0.96; D = 56; E = 110; F = -4; G = 106
31. Cc1nc(-c2ccc(S(=O)(=O)Nc3ccc(Br)cc3Cl)s2)cs1
  A = /; B = i; C = 0.94; D = /; E = /; F = /; G = 94
32. Cc1ccc(C2SCC(C(=O)O)N2C(=O)c2ccc(F)cc2)cc1 (stereo not given)
  A = -1.1; B = i; C = 0.94; D = -57; E = 115; F = -10; G = 103
33. O=C(COc1ccccc1)Nc1nc(-c2cccs2)cs1
  A = -1.8; B = i; C = 0.92; D = 43; E = 114; F = -11; G = 101
34. O=C(c1ccco1)N1CCN(Cc2nc(Cc3ccccc3)no2)CC1
  A = /; B = i; C = 1.1; D = /; E = /; F = 0; G = 87
35. Cc1ccc(C(=O)N/N=C/c2sc(=O)n(Cc3cccc(C(=O)O)c3)c2Cl)cc1
  A = 0.3; B = i; C = 1.1; D = 45; E = 69; F = 3; G = 103
36. COc1ccccc1/C=C/C=N/NC(=O)c1ccco1
  A = /; B = i; C = 0.83; D = /; E = /; F = /; G = 91
37. CC1CCN(c2nc(/C=C/c3ccccc3)nc3ccccc23)CC1
  A = -1.2; B = i; C = 0.94; D = /; E = /; F = -4; G = 104
38. CCSC1=NCCN1C(=O)c1c(-c2ccccc2Cl)noc1C
  A = /; B = i; C = 0.94; D = /; E = /; F = -9; G = 103
39. OC(COc1ccc2ccccc2c1)Cn1cncn1 (stereo not given)
  A = -0.8; B = i; C = 1; D = 50; E = 106; F = 1; G = 101
40. Cc1ccccc1C(=O)Nc1c2c(nc3ccccc13)CCCC2
  A = -1.1; B = i; C = 0.91; D = /; E = /; F = -6; G = 101
41. NC(=S)NNC(=O)/C(=C/c1ccc(Br)cc1)NC(=O)c1ccccc1
  A = /; B = i; C = 1.1; D = 0; E = 92; F = -3; G = 111
42. COc1cc(NC(=O)c2nccnc2C(=O)O)cc(OC)c1
  A = -0.5; B = i; C = 0.98; D = /; E = /; F = -16; G = 68
43. O=C(CSc1n[nH]c(=O)[nH]c1=O)c1ccc(Cl)cc1Cl
  A = /; B = i; C = 0.95; D = /; E = /; F = /; G = 109
44. CS(=O)(=O)N(CC(=O)Nc1ccc(S(=O)(=O)N2CCCC2)cc1)c1cccc(F)c1
  A = /; B = i; C = 0.89; D = /; E = /; F = /; G = 101
45. CC(NS(=O)(=O)c1ccc(Cl)cc1)C(c1cccs1)N1CCN(C)CC1 (stereo not given)
  A = -2.1; B = i; C = 0.91; D = -44; E = 105; F = 0; G = 103
46. CCOC(=O)c1cn(-c2c(C)n(C)n(-c3ccccc3)c2=O)c2c(F)c(F)c(F)cc2c1=O
  A = /; B = i; C = 0.95; D = /; E = /; F = /; G = 114
47. C=CCn1c(SCC(=O)NCCCC(=O)OCC)nc2scc(-c3ccco3)c2c1=O
  A = /; B = i; C = 0.96; D = -45; E = 121; F = -5; G = 109
48. Cc1ccc(C)c2[nH]c(=O)c(CCNC(=O)CC(C)C)cc12
  A = -0.6; B = i; C = 0.91; D = 0; E = 124; F = -9; G = 107
49. Cc1c(-c2cc(C(=O)O)on2)cnn1C
  A = /; B = i; C = 1; D = -36; E = 148; F = -2; G = 113
50. COC(=O)CCN(C)CCC(=O)OC
  A = -2.5; B = i; C = 0.96; D = /; E = /; F = 4; G = 98

Individual results from the results shown:
Entry of `Cc1csc(NC(=O)C2CCCN2C(=O)Oc2ccccc2)n1` (stereo not given) in GALR2 ag: -0.7
Entry of `CCc1c(-c2ccccc2)nc(N)c(C#N)c1-c1cccs1` in Insulin prom inh: 11

The results go on:
Short keys – A = GALR2 ag; B = HSV augment; C = HSV augment primary fold; D = Insulin prom inh; E = Insulin prom inh cell count; F = PKD1 kinase inh; G = RGS16-Gao HTS
51. O=c1cc(Nc2ccc3c(c2)OCCO3)[nH]c(=O)n1Cc1ccc(F)cc1
  A = -1.7; B = i; C = 1; D = 56; E = 133; F = -6; G = 105
52. C=CCSC1=C(C#N)C(c2ccccc2C)CC(=O)N1 (stereo not given)
  A = -0.4; B = i; C = 0.92; D = 0; E = 165; F = 3; G = 104
53. CC1CCN(C(=O)CCNC(=O)Cn2cnc3sc4c(c3c2=O)CCCC4)CC1
  A = 1.3; B = i; C = 0.95; D = /; E = /; F = 0; G = 96
54. Cc1ccc(C)c(NC(=O)COC(=O)Cc2ccsc2)c1
  A = /; B = i; C = 0.96; D = 36; E = 91; F = -3; G = 108
55. COc1cccc(CSc2nc3ccccc3cc2C=O)c1
  A = 0.2; B = i; C = 0.4; D = -42; E = 14; F = -2; G = 103
56. Cn1c(=N)n(CC(=O)c2ccccc2)c2ccccc21
  A = /; B = i; C = 1; D = /; E = /; F = /; G = 121
57. Cc1nnc(SC(C)C(=O)Nc2nccs2)s1 (stereo not given)
  A = /; B = i; C = 0.92; D = 33; E = 179; F = 7; G = 98
58. Cc1ccc(Cc2c(C)nc3nc(SCC(=O)NCCCN4CCOCC4)nn3c2C)cc1
  A = /; B = i; C = 0.93; D = -13; E = 63; F = 5; G = 108
59. CN(C)CCNC(=O)/C(=C/c1ccc(-c2cccc(Cl)c2)o1)NC(=O)c1ccccc1
  A = 1.3; B = i; C = 0.57; D = 19; E = 143; F = 6; G = 105
60. O=C1CC(c2ccccc2)CC(O)=C1C=Nc1cccc(Cl)c1 (stereo not given)
  A = 0.6; B = i; C = 0.95; D = 3; E = 146; F = 0; G = 111
61. O=[N+]([O-])c1ccc(Sc2ncccn2)c([N+](=O)[O-])c1
  A = /; B = i; C = 0.53; D = /; E = /; F = /; G = 104
62. C/C(=N\NC(=O)c1ccccc1F)c1ccc(C#N)cc1
  A = /; B = i; C = 0.84; D = /; E = /; F = -4; G = 105
63. CN(C)C(CNc1nnnn1-c1ccccc1)c1ccco1 (stereo not given)
  A = 1.7; B = i; C = 0.9; D = 32; E = 26; F = -14; G = 103
64. CCN(CC)CCNC(=O)CCc1nn(C)c(=O)c2ccccc12
  A = 0.0; B = i; C = 0.93; D = -45; E = 70; F = -4; G = 104

3 entries from above, set out differently.
62: C/C(=N\NC(=O)c1ccccc1F)c1ccc(C#N)cc1
  GALR2 ag: /
  HSV augment: i
  HSV augment primary fold: 0.84
  Insulin prom inh: /
  Insulin prom inh cell count: /
  PKD1 kinase inh: -4
  RGS16-Gao HTS: 105
63: CN(C)C(CNc1nnnn1-c1ccccc1)c1ccco1 (stereo not given)
  GALR2 ag: 1.7
  HSV augment: i
  HSV augment primary fold: 0.9
  Insulin prom inh: 32
  Insulin prom inh cell count: 26
  PKD1 kinase inh: -14
  RGS16-Gao HTS: 103
64: CCN(CC)CCNC(=O)CCc1nn(C)c(=O)c2ccccc12
  GALR2 ag: 0.0
  HSV augment: i
  HSV augment primary fold: 0.93
  Insulin prom inh: -45
  Insulin prom inh cell count: 70
  PKD1 kinase inh: -4
  RGS16-Gao HTS: 104

Bioassay records deposited in PubChem by several laboratories.
